Menin-MLL FL inh – menin-MLL binding inhibition, fluorescein peptide; Fluorescence polarization, fluorescein-MLL peptide displacement from menin; FP activity change, % at 61.4 µM; 290,000 tested, under 10 active; AID 1766; inconclusive = falling polarisation curve, or a change in total fluorescence; inactive = total fluorescence flat and polarisation flat or rising; no compound was filed as active; the % refers to the polarisation; negative = inhibition;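 further: % of control where 0% means no effect; inhibitors lower the polarisation; unlabelled MLL peptide was the positive control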
Sfp inh – inhibitors of Bacillus subtilis Sfp phosphopantetheinyl transferase; Potency, µM, for inactives: max response, negative = inhibition, most hits filed as inhibitors; hit rate 3.5% among 310,000; Q9F4F7; Biochemical Sfp PPTase activity, qHTS; active means well fitted inhibition curve with a large enough effect; inconclusive means small, poorly fitted or top-dose-only effect, or another doubt; inactive means no such curve, though single readings can be large or run the other way;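 further: the enzyme is Sfp with the accession as filed and its product quenches rhodamine fluorescence; potency means the concentration at half of the fitted maximal effect; 0% = enzyme reaction without inhibitor and -100% = no enzyme wells; top concentration of the series not given in the record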
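Fluorescence-quenching assay with 15 nM Sfp, 5 uM rhodamine-CoA and 12.5 uM BHQ-2-labelled ybbR peptide in pH 7.6 Hepes/MgCl2 buffer. Enzyme was pre-incubated with compound for 15 min at room temperature. Rate was taken from the 30-min fluorescence change (525/598 nm).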
An asterisk follows results filed as active; ? = inconclusive; nt = no result given; & = joins results of further samples; ! = not confirmed by another sample; [ ] = another dose, or the depositor's remark. This is a subset, so the mix of outcomes need not match the whole.

Values run as follows: Menin-MLL FL inh | Sfp inh
1) NCC(CC(=O)O)c1ccc(Cl)s1 (centres undefined)
    nt | 24%
2) CC(C)C[C@H](NC(=O)[C@H](Cc1ccccc1)NC(=O)CNC(=O)[C@H](C)NC(=O)[C@@H](N)Cc1ccc(O)cc1)C(=O)O
    nt | 4%
3) CO[C@@H]1C[C@@H](C[C@H]2CC[C@H](C)[C@@H]([C@@H](C)C(=O)O)O2)O[C@]2(O[C@](C)([C@H]3CC[C@@](C)(C4OC([C@H]5O[C@@](O)(CO)[C@H](C)C[C@@H]5C)C[C@@H]4C)O3)C[C@H]2C)[C@@H]1C (some centres undefined)
    nt | 23%
4) CC(n1cc(C[C@H](N)C(=O)O)c2ccccc21)n1cc(C[C@H](N)C(=O)O)c2ccccc21
    nt | 28µM*
5) C=CCN1CCC2(C)c3cc(O)ccc3CC1[C@@H]2C (some centres undefined)
    nt | 4%
6) CC(=O)[C@@H]1CC[C@H]2[C@@H]3CC[C@@H]4CC(=O)CC[C@]4(C)[C@H]3CC[C@]12C
    nt | 8%
7) C[N+]1([O-])CCC[C@@H]1c1cccnc1 (some centres undefined)
    nt | 30%
8) CC(=O)OCOCC(=O)OCO[P+](=O)C(OCOC(C)=O)c1cc([N+](=O)[O-])ccc1Oc1ccc(Br)cc1 (centres undefined)
    nt | 18%
9) c1cncc(C2CCCN2)c1 (centres undefined)
    nt | 17%
10) CN(CCc1ccc(Cl)c(Cl)c1)[C@@H]1CCCC[C@@H]1N1CCCC1
    nt | 16%
11) C=C(C)[C@H]1O[C@H]2CC[C@@]3(C)[C@@](O)(CC[C@H]4[C@@H]5OC(C)(C)[C@H]6C[C@@H]7C(=C)Cc8c(Cl)cc9[nH]c(c5c9c8[C@@]76O)[C@@]43C)[C@]23O[C@@H]3[C@H]1O
    nt | 16%
12) CCCC[C@@H](C)[C@@H](OC(=O)C[C@@H](CC(=O)O)C(=O)O)[C@H](C[C@@H](C)C[C@H](O)CCCC[C@@H](O)C[C@H](O)[C@H](C)N)OC(=O)C[C@H](CC(=O)O)C(=O)O
    nt | 33%
13) O=NN1CCCC1c1cccnc1 (centres undefined)
    nt | 26%
14) COc1ccc2[nH]cc(CCNCc3ccc(Br)cc3)c2c1
    nt | -23%
15) CCCN(C/C=C/I)C1CCc2ccc(O)cc2C1 (centres undefined)
    nt | -26%
16) Cn1cccc1-c1cccnc1
    nt | 21%
17) C[C@H](NC(=O)[C@@H](N)Cc1ccc(O)cc1)C(=O)NCC(=O)N(C)[C@@H](Cc1ccccc1)C(=O)NCCO
    nt | 5%
18) CC(Cc1cccc(C(F)(F)F)c1)NCCCc1ccccc1 (centres undefined)
    nt | -1%
19) CNc1ccc2oc(C[C@@H]3OC4(CC[C@@H]3C)O[C@H]([C@@H](C)C(=O)c3ccc[nH]3)[C@H](C)C[C@H]4C)nc2c1C(=O)O (some centres undefined)
    nt | 22%&21%
20) CC(C)(C)NC[C@H](O)COc1cccc2[nH]c(C#N)cc12
    nt | 4%
21) O=C(O)[C@@H]1CCN1
    2.6 | nt
22) NC(=O)CI
    1.4 | nt
23) C[C@]12Cc3cn4c(nc3C=C1CCC1C2CC[C@@]2(C)[C@H]1CC[C@@]2(O)C#N)nc1ccccc14 (some centres undefined)
    1.3 | nt
24) CCN1C[C@]2(C)CC[C@H](O)[C@@]34[C@@H]5C[C@@H]6[C@@H](OC)C[C@@](O)(C5[C@H]6O)[C@@H](C[C@@H]23)[C@@H]14
    0.7 | nt
25) CC12CCC3C(CCC4=C(O)C(=O)CCC43C)C1CCC2=O (centres undefined)
    0.9 | nt
26) Clc1ccc(N2CC3CCC(C2)N3)nn1
    5.0 | nt
27) COc1ccc2c(c1)[C@@]13CCCC[C@H]1[C@@H](C2)NCC3
    1.5 | nt
28) N#C/C(=C\c1ccc(O)c(O)c1)C(=O)NCCCNC(=O)/C(C#N)=C/c1ccc(O)c(O)c1
    30[activator] | nt
29) O=[N+]([O-])c1ccc(O[C@@H]2O[C@H](CO)[C@@H](O)[C@H](O)[C@H]2F)c([N+](=O)[O-])c1
    15 | nt
30) CCc1cc2c(nc1CC)CCN(CC/C(C)=N/OC)C2
    1.6[11.7 µM] | 14%
31) Nc1ncnc2c1ncn2[C@@H]1O[C@@H]2CO[P@](=O)(S)O[C@H]2[C@H]1O
    -3.7 | -4%
32) CN1[C@@H]2CC[C@H]1CC(OC(=O)c1cc(Cl)cc(Cl)c1)C2 (some centres undefined)
    9.5 | 10%
33) CN(CCC(N)CC(=O)NC1C=CC(n2ccc(N)nc2=O)OC1C(=O)O)C(=N)N (centres undefined)
    4.7 | -11%
34) CCOP(=S)(OCC)O/N=C(\C#N)c1ccccc1Cl
    3.3 | ?
35) CC(=O)OC[C@]12C[C@H](OC(=O)CC(C)C)C(C)=C[C@H]1O[C@H]1[C@H](O)[C@@H](OC(C)=O)[C@@]2(C)[C@]12CO2
    -2.0 | 10%
36) CC(=O)C1CC[C@H]2C3CC[C@@H]4CC(O)CC[C@@]4(C)C3CC[C@]12C (some centres undefined)
    -3.4 | -4%
37) Cn1c(CCCC(=O)O)nc2cc(N(CCCl)CCCl)ccc21
    1.6 | -12%
38) C[N+]1(C)C2CC[C@H]1CC(OC(=O)[C@@H](CO)c1ccccc1)C2 (some centres undefined)
    5.4 | 8%
39) CC(Cc1ccc(OCC(=O)O)cc1)NCC(O)c1cccc(Cl)c1 (centres undefined)
    6.0 | 5%
40) C=C1C(O)C2OC3(CCC(/C=C/C(C)C4CC(C)=CC5(OC(CC(C)(O)C(=O)O)CCC5O)O4)O3)CCC2OC1C(O)CC(C)C1OC2(CCCCO2)CCC1C (centres undefined)
    -0.4[2.29 µM] | 11%
41) CN1CCc2nc(CO)c(CO)cc2C1
    0.8[11.7 µM] | 4%
42) CCCCCCCCCCCCN=C(N)N
    -5.5 | -27%
43) N[C@@H](Cc1ccc(O)cc1)C(=O)O
    0.6 | -6%
44) CC(C)[C@@]1(NC(=O)[C@@H]2C[C@H]3c4cccc5[nH]cc(c45)C[C@@H]3N(C)C2)O[C@]2(O)[C@H]3CCCN3C(=O)[C@H](Cc3ccccc3)N2C1=O
    -3.7[24.8 µM] | -10%
45) CCN1C[C@]2(COC)[C@H](O)C[C@H](OC)[C@]34C1C([C@H](OC)[C@H]23)[C@]1(OC(C)=O)C2[C@@H](OC(=O)c3ccccc3)C(O)(C[C@H]24)[C@@H](OC)[C@@H]1O
    1.2 | 31%&11%[activator]
46) CN1Cc2ccccc2[C@@H]2c3cccc4[nH]cc(c34)C[C@H]21
    ? | 79µM*!
47) CN1CCC(O)(c2ccc(F)cc2)C(C(=O)c2ccc(F)cc2)C1 (centres undefined)
    -3.2 | 10%
48) C=C1[C@@H]2C[C@]3(C(CC2=O)[C@]24C5C[C@H]3[C@H]2N(CC)C[C@]5(C)CC[C@@H]4O)[C@@H]1O (some centres undefined)
    -0.1 | 20%
49) c1cc(CN2CCCC3(CCNCC3)C2)ccn1
    -5.8 | 1%
50) CC[C@]1(O)C(=O)OCc2c1cc1n(c2=O)Cc2cc3ccccc3nc2-1
    ? | 6%
51) CC1CCCC(=O)CCC/C=C/c2cc(O)cc(O)c2C(=O)O1 (centres undefined)
    -0.9 | 0%
52) CC(C)c1cc2c(c(O)c1O)[C@@]1(C(=O)O)CCCC(C)(C)[C@@H]1CC2
    0.5 | 1.4µM*
53) O=c1cccc2n1CC1CC2CN2CCCC[C@H]12 (some centres undefined)
    ? | 0%
54) CCNN
    -16 | ?
55) CC(=O)OC1CC2C(C)(C)C(=O)C=C[C@]2(C)C2CC[C@]3(C)C(=CC(=O)OC3c3ccoc3)[C@]12C (some centres undefined)
    0.0 | -11%
56) CC(C)CN1CCC2(CC1)CCN(C(=O)Oc1ccccc1)CC2
    0.0 | 20%
57) c1csc(CN2CCCC3(CCNCC3)C2)n1
    -5.1 | 4%
58) COC(=O)N1CCC2(CCCN(C)C2)CC1
    1.3 | 13%
59) O=C(Oc1ccccc1)N1CCC[C@@]2(CCN(C(c3ccccc3)c3ccccc3)C2)C1
    1.0 | 1%
60) O[C@H]1CCCC[C@H]1N1CCC(c2ccccc2)CC1
    5.9 | 16%&10%

One compound at a time (already shown).
Listed for COC(=O)N1CCC2(CCCN(C)C2)CC1 : Menin-MLL FL inh = 1.3; Sfp inh = 13%
Listed for CN1CCc2nc(CO)c(CO)cc2C1 : Menin-MLL FL inh = 0.8[11.7 µM]; Sfp inh = 4%

Additional structures follow:
Values run as follows: Menin-MLL FL inh | Sfp inh
61) CC1=CC(=O)C2=C(C)C[C@@H](O)[C@@H]3[C@@H](OC(=O)[C@H]3C)[C@H]12
    -1.1[24.8 µM] | 5%
62) CC1(C)C(O)CC(O)[C@]2(C)C1CC(O)[C@]1(C)C2CC[C@@]2(C)C(c3ccoc3)CC3OC312 (some centres undefined)
    2.2 | -12%
63) CCCC(Cn1cncn1)c1ccc(Cl)cc1Cl (centres undefined)
    1.9 | 7%
64) CN(C)C1C(=O)C(C(N)=O)=C(O)[C@@]2(O)C(=O)C3=C(O)c4c(O)cccc4[C@@](C)(O)C3[C@H](O)C12 (some centres undefined)
    ? | 56µM*
65) COc1cccc([C@@]2(O)CCCCC2CN(C)C)c1 (some centres undefined)
    ? | 17%&10%
66) COc1ccc2[nH]cc(C3=CCNCC3)c2c1
    ? | 4%&-16%
67) NNc1ccccc1
    3.6&1.8 | -14%&16%
68) COC1=C[C@H]2C3=C([C@H]2C1=O)[C@H](NC(C)=O)CCc1cc(OC)c(OC)c(OC)c13
    -0.2[24.8 µM] | 27%
69) Cc1nnc2n1-c1ccc(Cl)cc1C(c1ccccc1Cl)=NC2
    3.1 | -3%
70) CCOc1ccc(-c2nc3ccc(-c4nc5ccc(N6CCN(C)CC6)cc5[nH]4)cc3[nH]2)cc1
    ? | ?
71) CCN(CC)C(=O)C(C)Oc1cccc2ccccc12 (centres undefined)
    2.5 | -14%
72) CCOP(=S)(OCC)Oc1ccc(Cl)cc1Cl
    0.4 | ?
73) CCCCC/C=C\C/C=C\C/C=C\CCCCCCC(=O)NCCO
    -3.1&-0.3 | 24%&-18%&-6%
74) C=CCN1CCC23c4c5ccc(O)c4O[C@H]2C(=O)CC[C@@]3(O)C1C5 (some centres undefined)
    4.1&-0.7 | 7%
75) N#C/C(=C\c1ccc(O)c(O)c1)C(N)=S
    ? | 0.18µM*
76) CC(=O)C1CCC2C3CCC4CC(O)CCC4(C)C3CC(O)C12C (centres undefined)
    0.6 | -9%
77) CCCCC/C=C\C/C=C\C/C=C\C/C=C\CCCCOC(CO)CO
    -5.2 | -8%
78) CC(=O)OC1C(=O)[C@]2(C)C(O)CC3OC[C@]3(OC(C)=O)C2[C@@H](OC(=O)c2ccccc2)[C@]2(O)CC(O)C(C)=C1C2(C)C (some centres undefined)
    1.7 | -4%
79) CCCCCCC(=O)CCCCCC/C=C/C[C@@H](O)[C@H](O)[C@@](N)(CO)C(=O)O
    -3.6&20 | 4%&-5%
80) c1ccc(N2CCCC3(CCNCC3)C2)cc1
    0.9 | 1%
81) CNCCc1cnc[nH]1
    ? | -15%&9%&-11%
82) CCCCCCC(=O)O[C@H]1CC[C@H]2[C@@H]3CCC4CC(=O)C=C(C)[C@]4(C)[C@H]3CC[C@]12C (some centres undefined)
    -23 | -27%
83) C=CCN1CC[C@]23CCCCC2[C@H]1Cc1ccc(O)cc13 (some centres undefined)
    -1.8&-0.1 | -20%
84) COc1ccc2c3c1O[C@H]1[C@@H](O)C=C[C@H]4C(C2)NCCC341 (some centres undefined)
    5.0 | -15%
85) CN(CCc1ccc(Cl)c(Cl)c1)[C@H]1CCCC[C@H]1N1CCCC1
    -15 | ?
86) CC(C)=CCCC1(C)C=Cc2c(O)c3c(c(CC=C(C)C)c2O1)OC12C(=CC4CC1C(C)(C)OC2(C/C=C(/C)C(=O)O)C4=O)C3=O (centres undefined)
    -9.4 | -88%
87) COC(=O)/C(C)=C\CC12OC(C)(C)C3CC(C=C4C(=O)c5c(OC)c6c(c(CC=C(C)C)c5OC431)OC(C)(CCC=C(C)C)C=C6)C2=O (centres undefined)
    11 | ?
88) CN(C(=O)Cc1ccc(Cl)c(Cl)c1)[C@H](CN1CCCC1)c1ccccc1
    -16 | -2%&7%
89) CC(=O)O[C@@H]1C[C@@]2(C)C(c3ccoc3)C[C@H]3O[C@]32[C@]2(C)C(=O)C(O)=C3C(C)(C)C(=O)C=C[C@]3(C)C12 (some centres undefined)
    0.1 | -6%
90) CC(=O)C1CCC2C3CCC4CC(C)(O)CCC4(C)C3CCC12C (centres undefined)
    1.6 | 25%
91) COc1cc2c(cc1OC)C1C(=O)c3c(cc4c(c3O)C=CC(C)(C)O4)OC1CO2 (centres undefined)
    -3.8 | ?
92) C[C@@]12CC[C@H](O)C[C@@H]1CC[C@H]1[C@H]2CC[C@@]2(C)[C@@H](C3=CC(=O)OC3)CC[C@]12O
    1.3[24.8 µM] | 12%
93) Nc1ncnc2c1nc(Sc1ccc(Cl)cc1)n2[C@@H]1O[C@@H]2COP(O)(=S)O[C@H]2[C@H]1O (some centres undefined)
    0.0 | 2%
94) CN(C)CCc1ccc(O)cc1
    -9.0&-2.8 | 1%&-8%
95) CCCCC/C=C\C/C=C\C/C=C\C/C=C\CCCC(=O)OCCN
    25&5.5 | 63µM*
96) CC1=C2C(=CO[C@H](C)[C@H]2C)C(=O)C(C(=O)O)=C1O
    1.4 | -10%
97) c1ccc(N2CCCC3(CCNCC3)C2)nc1
    0.8 | -2%
98) Clc1ccc([C@@H]2C[C@H]3CC[C@@H]2N3)cn1
    ? | 9%

Source: PubChem BioAssay
